High-throughput results as filed in PubChem.
NPYLR7 agonist = mosquito NPYLR7 agonism | 0.15% of 270,000 active | HEK293T NPYLR7/Galpha15, GCaMP6s calcium fluorescence | activation, % at 10 µM; in the data active means activation above about 40%;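 further: 0% = vehicle and 100% = reference agonist at the receptor; some compounds past the cut are filed as inactive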
NPYLR7 agonist max-min = also measured in NPYLR7 agonist; calls as there; activation, %; measured here: Max-Min RFU normalised activation; some inactives read as strong as hits;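 span of the calcium signal over five minutes; 0% = vehicle and 100% = native peptide agonist; compound fluorescence can raise it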
* hit, by the source's call; & = joins results of further samples. Not all compounds are listed, so the mix of outcomes need not match the whole.

Start of the data: the first three entries as a preview:
item | canonical_smiles | NPYLR7 agonist | NPYLR7 agonist max-min
1 | COc1ccc(Nc2ccc(-c3cccc(N)c3)cn2)cn1 | -1 | -2
2 | O=C(O)c1cc(Cl)c[nH]1 | 0 | -3
3 | CC(C)CC(C(=O)NCCN(C)C)N1C(=O)CSC1c1ccsc1 (stereo unspecified) | 16 | 21

The listing (from the top)
item | canonical_smiles | NPYLR7 agonist | NPYLR7 agonist max-min
1 | COc1ccc(Nc2ccc(-c3cccc(N)c3)cn2)cn1 | -1 | -2
2 | O=C(O)c1cc(Cl)c[nH]1 | 0 | -3
3 | CC(C)CC(C(=O)NCCN(C)C)N1C(=O)CSC1c1ccsc1 (stereo unspecified) | 16 | 21
4 | CCCN(C(=O)c1cccs1)C1CCNCC1 | 0 | 2
5 | Cc1ccc2c(c1)C(CC(=O)N1CCN(C)C3(CCN(C)CC3)C1)C(=O)N2 (stereo unspecified) | 10 | 6
6 | CCn1ccnc1CN1CCC(C(O)c2cccs2)CC1 (stereo unspecified) | 0 | -1
7 | O=C(COc1ccc(Cl)cc1)N1CCN(c2ccc3nnc(C4CC4)n3n2)CC1 | -1 | -4
8 | O=S(=O)(c1cccc(C(F)(F)F)c1)N1CCN(CC(OCc2c(F)cccc2F)c2ccc(Cl)cc2)CC1 (stereo unspecified) | 24 | 11
9 | COC(=O)c1c(C)[nH]c(C(=O)C(C)Sc2nncn2C)c1C (stereo unspecified) | 8 | 9
10 | CC(NC(=O)C(C)N1CCN(C)CC1C)c1ccc2c(c1)OCCO2 (stereo unspecified) | 2 | -25
11 | Cc1nn(CC(=O)N2CCC(O)(CN(C)C)C2)c(=O)c2ccccc12 (stereo unspecified) | 16 | 13
12 | COc1ccc(CCNC(=O)c2cc(-c3cccn3C)nn2-c2ccc(Cl)c(Cl)c2)cc1OC | -2 | 0
13 | COc1ccc(C(=O)N(CC(=O)N2CCc3sccc3C2COc2ccccc2OC)CC(C)C)cc1 (stereo unspecified) | -4 | 1
14 | CC(C)n1cc(Br)cc1C(=O)NC1(C(N)=O)CCCC1 | 0 | 32
15 | O=C1CCCN1Cc1nc(Cc2c(F)cccc2Cl)no1 | 28 | 15
16 | CCOc1ccc(-n2nnc3c(N4CCN(S(=O)(=O)c5ccc(CC)s5)CC4)ncnc32)cc1 | -8 | -17
17 | CCOC(=O)CC1COCCN1Cc1cn(C)nc1-c1ccc(Oc2ccccc2)cc1 (stereo unspecified) | 4 | 3
18 | O=C1C2CCCCC2C(=O)N1c1nnc(-c2ccncc2)s1 (stereo unspecified) | -2 | 3
19 | C=c1cc(C)n(CC(=O)Nc2ccc(C)c(F)c2)c(=O)c1=C1N=C(c2ccc(OC)cc2)NO1 | -3 | -4
20 | CC(C#N)c1cccc(C(=O)N2CCOC(COCc3ccccc3F)C2)c1 (stereo unspecified) | 2 | 3
21 | Cc1nc(SCc2ccccc2)c(C#N)c(-c2cccc([N+](=O)[O-])c2)c1C(=O)Nc1ccccc1 | -2 | -6
22 | Cc1ccc(-c2nc3ccc(Br)cn3c2NC2CCCCC2)cc1 | -9&3 | -5&6
23 | COc1ccc(-c2c(N)n(C)c3ccccc3c2=O)cc1OC | -19 | -18
24 | Cc1nc(-c2ccc3c(c2)CCN3C(=O)c2cc3c([nH]c2=O)CCCC3=O)cs1 | 6 | 2

Seven of these compounds in another layout:
19	C=c1cc(C)n(CC(=O)Nc2ccc(C)c(F)c2)c(=O)c1=C1N=C(c2ccc(OC)cc2)NO1
5	Cc1ccc2c(c1)C(CC(=O)N1CCN(C)C3(CCN(C)CC3)C1)C(=O)N2 (stereo unspecified)
15	O=C1CCCN1Cc1nc(Cc2c(F)cccc2Cl)no1
9	COC(=O)c1c(C)[nH]c(C(=O)C(C)Sc2nncn2C)c1C (stereo unspecified)
7	O=C(COc1ccc(Cl)cc1)N1CCN(c2ccc3nnc(C4CC4)n3n2)CC1
16	CCOc1ccc(-n2nnc3c(N4CCN(S(=O)(=O)c5ccc(CC)s5)CC4)ncnc32)cc1
24	Cc1nc(-c2ccc3c(c2)CCN3C(=O)c2cc3c([nH]c2=O)CCCC3=O)cs1
Assay by compound,19,5,15,9,7,16,24
NPYLR7 agonist,-3,10,28,8,-1,-8,6
NPYLR7 agonist max-min,-4,6,15,9,-4,-17,2

Next records follow.
item | canonical_smiles | NPYLR7 agonist | NPYLR7 agonist max-min
25 | O=C(NCCNc1ccc(Nc2ccncc2)nn1)Nc1cccc(C(F)(F)F)c1 | 6 | -3
26 | Cc1cc(Cl)ccc1OCC(=O)Oc1cccc([N+](=O)[O-])c1 | -5 | -6
27 | CCC(=O)c1ccc(OCc2nc(N)nc(N3CCOCC3)n2)cc1 | 12 | 5
28 | COC1CCN(CC(=O)NCC(=O)c2cccs2)CC1 | 3 | 1
29 | CCOC(=O)N1CCC(NC(=O)c2sc3nc4c(c(C(F)(F)F)c3c2N)CC(C)CC4)CC1 (stereo unspecified) | 62* | 79*
30 | CN1CCN(C(=O)c2ccc(Cn3ccnc3)cc2)Cc2ccccc21 | 1 | 0
31 | Cc1ccc2nc(N3CCN(Cc4ccccc4)CC3)nc(-c3ccccc3)c2c1 | 12 | 11
32 | CCCc1[nH]n(-c2cccc(Cl)c2)c(=O)c1C1=C([n+]2cc(C)cc(C)c2)C(=O)N(C(C)C)C1=O | -18 | -11
33 | CC(=O)Nc1ccc(S(=O)(=O)Oc2ccc(Cl)cc2CN(Cc2ccco2)C(=O)NC(C)C)cc1 | 4 | 10
34 | CCC(C)N(CCC(=O)Nc1ccc(C)cc1)c1nc(Cc2ccc(C)cc2)ns1 (stereo unspecified) | 7 | 2
35 | Cc1nc(NCCNC(=O)c2cccc(C(F)(F)F)c2)cc(N2CCOCC2)n1 | 0 | 0
36 | CCC(=O)NCCCn1nc(-c2cccs2)ccc1=O | -2 | -4
37 | COc1ccc(CCOc2nc(-c3ccc(C)cc3)n(-c3cccc(NC(=O)c4cccc([N+](=O)[O-])c4)c3)n2)cc1 | -9 | 2
38 | COc1cc(CC(=O)N2CCOC(COCc3cccc(C(F)(F)F)c3)C2)cc(OC)c1 (stereo unspecified) | 26 | 29
39 | Cc1cc(N2CCC(C)CC2)n2nc(C)c(-c3ccc(Cl)cc3)c2n1 | -2 | -5
40 | CCCCSc1nnc2c(n1)OC(c1ccc([N+](=O)[O-])cc1)Nc1ccccc1-2 (stereo unspecified) | -10 | -14
41 | CCCNc1nccnc1-c1cccc(C=O)c1 | -3 | -5
42 | Cc1ccc(NC2(C(=O)NCCN(C)S(C)(=O)=O)CCCC2)cc1 | -12 | -13
43 | CCc1nc(SCc2cc(Cl)ccc2OC)n[nH]1 | 7 | 7
44 | COc1ccc(N2CCN(C(=O)c3cccc(F)c3)C(C)C2=O)cc1 (stereo unspecified) | 10 | 8
45 | CC(C)(C)n1nc2c(c1NC(=O)c1ccco1)CSC2 | -4 | -5
46 | C=CCn1c(-c2ccc(Cl)cc2)n[nH]c1=S | 2 | 67
47 | O=C(NCCn1ncc2c(N3CCCCC3)ncnc21)c1ccco1 | 0 | -2
48 | O=C(O)C1(CCc2ccccc2)CCCN(c2nccc3occc23)C1 (stereo unspecified) | -2 | -3
49 | COc1ccc(C2=NC(=Cc3ccsc3)C(=O)O2)cc1 | -1 | -1
50 | Cc1ccc(NC(=O)CCn2cncn2)c(C)c1 | 1 | 3
51 | O=S(=O)(NC1CCCc2ccccc21)c1ccc(Cl)c(Cl)c1 (stereo unspecified) | 6 | 7
52 | O=C(Nc1ccccc1)C1CCN(C(=O)c2c[nH]c3ccccc3c2=O)CC1 | 4 | -3
53 | Cc1ccc(NC2(C(=O)NCCc3cc(=O)[nH]cn3)CCCC2)cc1 | -4 | -4
54 | COc1ccc(/C=C2\C=C(c3ccccc3)N(c3cccc(Cl)c3Cl)C2=O)cc1 | 11 | 17
55 | O=C(c1ccc(F)cc1F)N1CCC(Cc2ccccc2)CC1 | -2 | -11
56 | COc1ccc(C(CC(=O)N(C)Cc2cnc3ccccn23)c2ccccc2)cc1 (stereo unspecified) | 12 | 1
57 | CCc1cnccc1NC(=O)c1c(C)oc(C)c1Br | -5 | -5
58 | Cc1c(CN(C)C(=O)COc2cccnc2)[nH]c2ccccc12 | 5 | 2
59 | CC(=O)c1ccc(C(=O)N(CCCN(C)C)c2nc3ccc(F)cc3s2)cc1 | 3 | 1
60 | O=c1oc2ccccc2c(O)c1C=Nc1nc2ccccc2s1 | 8 | 14
61 | COc1ccc(N2CCN(C(=O)C3CC=CCC3C(=O)NCCc3cccc(Cl)c3)CC2)cc1 (stereo unspecified) | -6 | -13
62 | Cn1cnnc1SCc1nc(N)nc(Nc2ccccc2)n1 | 9&12 | 1&4
63 | CN1CC2(CCN(C(=O)c3cn4ccsc4n3)C2)OC1=O (stereo unspecified) | 1 | 1
64 | CCc1nnc(NC(=O)CSc2nc3c(c(=O)n2CCOC)SC(C)C3)s1 (stereo unspecified) | 2 | 1
65 | CN1CCN(C(=O)c2nn(-c3ccccc3F)c(=O)n(Cc3cccc(C(F)(F)F)c3)c2=O)CC1 | -2 | -2
66 | CC(C)c1cc(C(=O)N2CCc3nnc(CCc4ccccc4)n3CC2)no1 | -6 | -7
67 | CCCCc1nc(N2CCN(C(=O)c3ccc(F)cc3)CC2)c2c(C)nn(-c3ccccc3)c2n1 | 11 | 13
68 | CCCSc1ncccc1C(=O)NCC(c1ccccc1)c1ccccc1 | -4 | -7
69 | CC1CCN(C(=O)CCNS(=O)(=O)c2ccc3c(c2)OCCCO3)C2CCCCC12 (stereo unspecified) | 7 | 2
70 | CC(=O)Nc1ccc(NC(=O)c2cccs2)c(C(F)(F)F)c1 | 9&1 | 8&19
71 | NS(=O)(=O)c1ccc(CCNC(=O)c2csc(-c3cc4ccccc4[nH]3)n2)cc1 | 18 | 15
72 | COCc1c(C(=O)N2CCN(c3ccccc3)CC2)cnn1-c1nccc(-c2cccs2)n1 | 16 | 6
73 | Cc1ccc(NC(=O)CCNC(=O)c2ccc(-n3cnnc3)cc2)cc1 | 4 | 2
74 | C=CCn1c(SCCCC)nc2c([nH]c3ccccc32)c1=O | -2 | -2
75 | O=C1COCc2cc(-c3cccnc3)ccc2N1CCN1CCOCC1 | 6 | 2
76 | CN(C)CCN1C(=O)C(O)=C(C(=O)c2cc3ccccc3o2)C1c1ccco1 (stereo unspecified) | -1 | -4
77 | Cc1cc(C(=O)NC2(C#N)CCC2)c(C)o1 | 0 | -1
78 | CN(Cc1ccccc1)Cc1nc2ccccc2c(=O)n1Cc1ccco1 | -7 | -10
79 | COc1ccc(Cc2noc(-c3cccc(Br)c3)n2)cc1OC | 0 | -2
80 | COc1ccc(OCc2cn3cccnc3n2)cc1 | -8&0 | -10&-3
81 | COC(=O)c1sc(N)c(C(=O)OC)c1COC(=O)c1cccc(C)c1 | 5 | 3
82 | COCCNC(=S)NNC(=O)c1ccccc1-n1cccc1 | 4 | 1
83 | CCOc1ccc(C(=O)N2CCN(C(=O)c3ccco3)CC2)cc1 | 6 | 5
84 | CN(Cc1ccccc1)C(=O)CCC1CCN(C(=O)CCN2CCCCO2)CC1 | 5 | 0

Other entries follow:
item | canonical_smiles | NPYLR7 agonist | NPYLR7 agonist max-min
85 | Cc1ccccc1C(=O)N1CCSC1c1ccc(F)cc1 (stereo unspecified) | -8 | -3
86 | CCOC(=O)c1nn(-c2ccc(F)cc2)c(=O)cc1OS(=O)(=O)c1ccc(C)cc1 | -1 | 6
87 | C=CCn1c(C)cn2c3c(=O)n(Cc4c(Cl)cccc4Cl)c(=O)n(C)c3nc12 | 5 | 11
88 | O=C(C1C[C@H]1c1ccccc1)N1CCC2(CC1)SCCN2C(=O)c1cccs1 (stereo partly specified) | 17 | 26
89 | Cc1nnc(C(=O)NC(C)(C)c2nc(C(=O)NCc3ccc(F)cc3)c(O)c(=O)n2C)o1 | -5 | -7
90 | COc1cccc(CN(C)C(C)C(=O)N(C)C)c1F (stereo unspecified) | 5 | 4
91 | Cn1cc(CN(C(=O)c2csc3nc(-c4ccc(F)cc4)cn23)C2CC2)cn1 | -5 | -5
92 | CCc1nc2ccc(C(=O)N(C)CCN(C)C)cn2c1N(C)CCN1CCOCC1 | 22 | 20
93 | CCNC(=S)Nc1ccn(Cc2c(F)c(F)c(F)c(F)c2F)n1 | 9 | 9
94 | COCc1c(Br)c(C)nc(OCC(=O)N/N=C\c2ccc(-c3cccc([N+](=O)[O-])c3)o2)c1C#N | -7 | -5
95 | N#CCC(=O)Nc1sc2c(c1C(N)=O)CCCC2 | 0 | -1
96 | C=CCN1C[C@H]2COc3ccccc3[C@H]2N(C(=O)c2cccs2)CCC1=O | 1 | 11
97 | CCCCC(CC)C(=O)Nc1c(-c2ccccc2)nc2cc(C)ccn12 (stereo unspecified) | -5 | 2
98 | CC(C)COC(=O)N1C2CCC3(CC2)OC(=O)N(C)CC13 (stereo unspecified) | 25 | 24
99 | Cc1cccn2c(CNC(=O)c3cc(C4CC4)[nH]n3)cnc12 | -7 | -11
100 | Cc1noc(C)c1CCC(=O)Nc1cc(-c2ccc(C(F)(F)F)cc2)no1 | 1 | 0
101 | CC1=C(C(=O)N2CCc3ccccc3C2)C(c2c(C)noc2C)NC(=O)N1 (stereo unspecified) | 1 | -2
102 | COc1ccc(OC)c(-c2cnc(-c3ccc(CNC(=O)c4cccc(Cl)c4Cl)cc3)[nH]2)c1 | -6 | -10
103 | NCC(=O)Nc1ccc(-n2nc(C(F)(F)F)cc2-c2ccc3c(ccc4ccccc43)c2)cc1 | -11 | -14
104 | Cc1cc(C(=O)Nc2cc(Cl)c(N)c(Cl)c2)cc(S(=O)(=O)N(C)C)c1C | 4 | 3
105 | Cc1c(C(=O)N(C)C2CCS(=O)(=O)C2)nnn1-c1ccc(F)cc1 (stereo unspecified) | 5 | 5
106 | COc1ccc(-c2cnc3ncnn3c2N2CCCN(C(=O)COCc3ccccc3)CC2)cc1OC | 2 | -3
107 | CC(C)(C)NC(=O)COC(=O)Cc1c(F)cccc1Cl | 3 | 4
108 | COc1ccccc1C1SC(C)C(=O)N1CCN(C(=O)c1ccccc1Cl)C(C)C (stereo unspecified) | -1 | 8
109 | CC1(C(=O)NCc2ccccc2CN2CCCC2=O)CCCCO1 (stereo unspecified) | 1 | -4
110 | C1=CC2=CC=CC3c4nc5ccccc5nc4C(=C1)C23 (stereo unspecified) | 2 | 1
111 | CC(=O)c1c(C)[nH]c(C(=O)COC(=O)c2c(C)noc2C)c1C | 3 | 5
